High-throughput results: PubChem, National Center for Advancing Translational Sciences (NCATS)
StopGo FLuc = FMDV 2A StopGo reporter, firefly signal; HEK cells with a luciferase reporter of 2A StopGo recoding; Potency, µM (series often up to 57.5 µM), for inactives: at the highest dose signal change, negative = less light; 0.23% of 120,000 active; active = well fitted falling curve with a large enough effect; inconclusive = small, poorly fitted or top-dose-only effect; inactive = no such curve, though single readings can be large or run the other way; note: nearly all actives have a fitted effect of over 60% in size; overnight with compound
2A Renilla = lowers the Renilla signal of an FMDV 2A StopGo reporter. HEK cells with a luciferase reporter of 2A StopGo recoding. Potency, µM (titrated, usually from 57.5 µM), inactives show top-dose signal change, negative = less light. 0.32% of 120,000 active; active means well fitted falling curve with a large enough effect; inconclusive means small, poorly fitted or top-dose-only effect; inactive means no such curve, though single readings can be large or run the other way; note: nearly all actives have a fitted effect of over 55% in size; overnight with compound
* hit, by the source's call; ? = inconclusive; [ ] = remark or other dose. % is set by controls: 0 for no effect and ±100 for the full control effect; potency is the fitted concentration of half-maximal effect. This is a subset. The share of hits here may be higher or lower than overall.

Start of the listing, in advance, 4 compounds:
SMILES	StopGo FLuc	2A Renilla
COc1ccc(C2C3=C(CCCC3=O)Nc3cc(OC)cc(OC)c32)cc1 (centres undefined)	24%	22%
C/C=C/Cn1c(=O)c2c(nc(-n3nc(C)cc3C)n2CC)n(C)c1=O	0%	3%
CCCSc1nc2c(c(=O)[nH]c(=O)n2C)n1CC(O)COc1ccc(Cl)cc1 (centres undefined)	21%	14%
COc1ccc(NC(=O)C2CCC(CNS(=O)(=O)c3ccc(Br)s3)CC2)c(OC)c1 (centres undefined)	33%[activator]	38%[activator]

The whole of this part, repeating the preview:
SMILES	StopGo FLuc	2A Renilla
COc1ccc(C2C3=C(CCCC3=O)Nc3cc(OC)cc(OC)c32)cc1 (centres undefined)	24%	22%
C/C=C/Cn1c(=O)c2c(nc(-n3nc(C)cc3C)n2CC)n(C)c1=O	0%	3%
CCCSc1nc2c(c(=O)[nH]c(=O)n2C)n1CC(O)COc1ccc(Cl)cc1 (centres undefined)	21%	14%
COc1ccc(NC(=O)C2CCC(CNS(=O)(=O)c3ccc(Br)s3)CC2)c(OC)c1 (centres undefined)	33%[activator]	38%[activator]
O=C(CSc1nc2c([nH]c3ccccc32)c(=O)n1-c1ccc(Cl)cc1)NCc1ccccc1	0%	-14%
CN1CCC(NC(=O)c2cccc3ccccc23)CC1	6%	-7%
COc1ccccc1N1CCN(CCC(=O)Nc2cccc(F)c2)CC1	-2%	8%
CCc1ccc(C(=O)C(C)Oc2ccc3ccc(=O)oc3c2)cc1 (centres undefined)	45%[activator]	1%
CS(=O)(=O)N1CCCc2cc(C(=O)N(Cc3c(F)cccc3Cl)C3CC3)ccc21	-15%	-20%
COc1ccc(C2C=C(c3ccccc3)Nc3nc(NC(=O)/C=C/c4ccc(F)cc4)nn32)cc1 (centres undefined)	7%	-7%
COC(=O)c1ccc2c(c1)N(CC(=O)Nc1ccc(OC)c(Cl)c1)C(=O)c1ccccc1S2	8%	-4%
CC1CCCN(C(=O)CCc2c[nH]c3ccccc23)C1 (centres undefined)	51%[activator]	11%
Cc1cccc(/C=C(/C#N)c2nc(-c3ccncc3)cs2)c1	95%[activator]	9%
Fc1ccc(N2CCN(c3ncnc4c3nc3n4CCCCC3)CC2)cc1	-27%	?
CC1CCCCN1CCCNC(=O)c1cc(Sc2ccc(Cl)cc2)nc2ccccc12 (centres undefined)	-7%	4%
N#CCCN(C(=O)Cn1nc(Cc2ccncc2)c2ccccc2c1=O)c1ccccc1	-5%	0%
CCc1ccc(CNC(=O)c2ccc3nc(CC)c(CC)nc3c2)cc1	?	20%
Cn1c(SCC(=O)NCc2ccccc2CN2CCOCC2)nnc1-c1ccc(C(C)(C)C)cc1	8%	-3%
C#CC[N+](CC)(CC)CC#Cc1ccccc1	1%	-1%
CCC(=O)N1CCc2cc(Br)cc(S(=O)(=O)N3CCCC(C(=O)Nc4ccc(C)c(F)c4)C3)c21 (centres undefined)	18%	45%[activator]
OC(COCCOCCOCCOCc1ccccc1)C(O)COCCOCCOCCOCc1ccccc1 (centres undefined)	24%	-6%
Cc1nn(C)cc1S(=O)(=O)N1CCN(Cc2cccc(Br)c2)CC1	-10%	-3%
COc1cc(NC(=O)CSc2ccc(-c3sc(-c4ccccc4)nc3C)nn2)cc(OC)c1	-19%	-7%
C=CCNC(=S)Nc1cccc(Cl)c1	10%	115%[activator]
O=C(NCCc1ccccc1)c1cc(Sc2cccc(Cl)c2)nc2ccccc12	51%[activator]	-7%

Record cards, as listed above. Screens in order: StopGo FLuc, 2A Renilla
`C/C=C/Cn1c(=O)c2c(nc(-n3nc(C)cc3C)n2CC)n(C)c1=O` in the list: 0%, 3%
`CCc1ccc(C(=O)C(C)Oc2ccc3ccc(=O)oc3c2)cc1` (centres undefined) in the list: 45%[activator], 1%
`CC1CCCN(C(=O)CCc2c[nH]c3ccccc23)C1` (centres undefined) in the list: 51%[activator], 11%
`O=C(NCCc1ccccc1)c1cc(Sc2cccc(Cl)c2)nc2ccccc12` in the list: 51%[activator], -7%

Next part
SMILES	StopGo FLuc	2A Renilla
C=CCNC(=O)NC(=O)CN1CCN(c2oc(-c3ccco3)nc2C#N)CC1	8%	3%
O=C(NCc1ccccc1Cl)C1CCCN(c2ncnc3onc(-c4ccc(F)cc4)c23)C1 (centres undefined)	-7%	17%
CCn1cc(C(=O)N(C)c2ccc(C(C)C)cc2)c2cc(OC)c(OC)cc2c1=O	-4%	-2%
CC(C)OCCCNC(=O)c1cn(C)c2ccc(S(=O)(=O)N(C)C3CCCCC3)cc2c1=O	-14%	33%[activator]
CCc1ccccc1OC(C(=O)O)c1ccccc1 (centres undefined)	-6%	0%
Cc1nc(NC(=O)c2csc3ccccc23)sc1C	135%[activator]	1%
COC(=O)CN1C(=O)CSc2ccc(S(=O)(=O)Nc3cccc(Cl)c3)cc21	9%	87%[activator]
CCOC(=O)C1=C(CN(CC)Cc2ccccc2)NC(=O)NC1c1ccc(OC)cc1 (centres undefined)	?	-3%
CC(C)(C)c1ccc2cc(C(=O)O)[nH]c2c1	20%	-1%
Cc1coc2c1c(C)cc1o/c(=N/O)c3c(c12)CCC3	0%	22%
Cc1cccc(OCCn2c(CN3CCCCC3)nc3ccccc32)c1	9%	8%
NP(N)(=O)NC(=O)c1ccc(F)cc1	-13%	-10%
COc1ccc(Nc2ncnc3c2nc2n3CCCC2)cc1Cl	9%	?
COc1ccccc1NC(=O)c1ccc(CN2C(=O)C(C)=C(c3ccc(C)c(C)c3)S2(=O)=O)cc1	-5%	11%
CN(C)CCN(Cc1ccco1)S(=O)(=O)c1cc2c(cc1Cl)NC(=O)CO2	-21%	-4%
Clc1ccc(Cl)c(NCc2nnc3n2CCCCC3)c1	-2%	26%
CN(Cc1ccccc1)C(=O)/C=C/c1cccs1	139%[activator]	121%[activator]
CCOC(=O)Cn1cnc2c1c(=O)n(C)c(=O)n2C	3%	-2%
N#Cc1ccccc1CSCCNC(=O)c1nccnc1N	2%	?
CN1C(=O)Cc2cc(S(=O)(=O)NCc3ccc(Cl)cc3)ccc21	-21%	13%
CCOC(=O)c1sc(NC(=O)Nc2cccc(Cl)c2)nc1C	6%	-1%
CCN1CCN(C(C(=O)O)c2c[nH]c3ccc(NC(=O)CCC(=O)O)cc23)CC1 (centres undefined)	3%	0%
CCCCNC(=O)c1cccc(NC(=O)c2nsc3ccccc23)c1	106%[activator]	0%
N#Cc1ccccc1Cn1nnc2c(=O)[nH]c(C3CCCN(S(=O)(=O)c4ccc(F)cc4)C3)nc21 (centres undefined)	13%	1%
COc1cccc(NC(=O)Cn2c(=O)n(-c3ccc(C)cc3)c(=O)c3ccc(C(=O)NCc4ccco4)cc32)c1	-5%	23%

Continued.
SMILES	StopGo FLuc	2A Renilla
O=C1CN(C(=O)c2ccccc2C(F)(F)F)C(c2ccccc2)c2cc(F)ccc2N1 (centres undefined)	7%	48%[activator]
COc1ccc(OC)c(/C=N/OCc2c(Cl)cccc2Cl)c1	?	35%[activator]
COc1c(C)cccc1C(=O)Nc1cccc2ncccc12	10%	-16%
COc1ccc(N2CC(NC(=O)/C=C\c3ccc(OC)c(OC)c3)CC2=O)cc1 (centres undefined)	-9%	-10%
CCn1cc(Br)c(C(=O)Nc2ccc(F)cc2F)n1	145%[activator]	-1%
O=C(Oc1cccc2ccccc12)c1ccc(-c2ccccc2)cc1	32%[activator]	0%
OCc1cccnc1	-11%	-4%
O=C(CSc1nc2ccccc2o1)c1ccccc1	101%[activator]	26%
NCC1CCN(Cc2ccccc2)C1 (centres undefined)	21%	15%
Cc1cc(C)cc(OC(C)C(=O)Nc2c(C(=O)c3ccccc3)oc3ccccc23)c1 (centres undefined)	-10%	-11%
COC(=O)c1ccc(NC(=O)N(C)CCc2noc(-c3ccc(C(=O)N4CCCC4)cc3)n2)cc1	32%[activator]	17%
CCOC(=O)c1cnc2ccc(Cl)cc2c1Nc1ccccc1OC	17%	2%
CCOc1cc(CN(CC(=O)NC2CCCCC2)C2CC2)ccc1OC(F)F	-13%	6%
CCCN(C(=O)c1cc2c(=O)oc3ccc(C)cc3c2s1)c1ccc(OCC)cc1	?	-10%
CCS(=O)(=O)N1CCCc2cc(C(=O)Nc3cc(C)ccc3C)ccc21	105%[activator]	-3%
Cc1ccc(NC(=O)COc2ncnc3ccccc23)c(C)c1	15%	1%
CNC(=O)CCc1c(-c2ccccc2)[nH]c2ccc(F)cc12	17%	10%
COc1ccc(-c2nnc(SCC(=O)NCCc3ccccc3)nc2-c2ccc(OC)cc2)cc1	-16%	10%
CC(C)c1ccc(NC(=O)CSc2ncc(-c3ccc(F)cc3)o2)cc1	27%	-7%
O=[N+]([O-])c1cccc(N/N=C/c2ccccc2Br)c1	66%[activator]	-4%
CCCNc1nc2c(c(=O)n(C)c(=O)n2C)n1Cc1ccc(Br)cc1	-5%	-5%
CCn1cc(C(=O)N2CCN(c3cc(Cl)ccc3C)CC2)c(=O)c2cc(S(=O)(=O)N3CCCCC3)ccc21	-15%	-14%
CCc1ccc(S(=O)(=O)c2cnc3ccc(OC)cc3c2N2CCCC(C)C2)cc1 (centres undefined)	10%	131%[activator]
CCN(Cc1ccc(OC)cc1)Cc1cc(=O)oc2ccc(C)cc12	3%	6%
CC(C)CC(NC(N)=O)C(=O)O (centres undefined)	14%	5%

Structural class: the entries above with a COOH group (four)
SMILES	StopGo FLuc	2A Renilla
CCc1ccccc1OC(C(=O)O)c1ccccc1 (centres undefined)	-6%	0%
CC(C)(C)c1ccc2cc(C(=O)O)[nH]c2c1	20%	-1%
CCN1CCN(C(C(=O)O)c2c[nH]c3ccc(NC(=O)CCC(=O)O)cc23)CC1 (centres undefined)	3%	0%
CC(C)CC(NC(N)=O)C(=O)O (centres undefined)	14%	5%

(more compounds)
SMILES	StopGo FLuc	2A Renilla
Cc1ccc2c(c1)c1c(c(=O)n(-c3ccccc3C)c(=O)n1CC(=O)NCCC1=CCCCC1)n2C	-4%	-5%
CCN(CC)c1ccc(-c2nc(-c3ccncc3)no2)cc1[N+](=O)[O-]	22%	-6%
Cc1ccc(CN2C(=O)N(c3ccccc3)C(=O)C2CC(=O)Nc2ccccc2)cc1 (centres undefined)	5%	64%[activator]
COc1cc(C2CC(=O)Nc3ccsc32)ccc1OCc1ccccc1 (centres undefined)	9%	?
COCCn1c(SC(C)C(=O)NC2CCCCCC2)nnc1-c1cccc(C)c1 (centres undefined)	-12%	23%
Cc1ccc(OCCn2c(-c3ccc(Cl)cc3)nc3ccccc3c2=O)c(C)c1	2%	-4%
Cc1cccc(NS(=O)(=O)c2cccc(C(=O)OCC(=O)c3ccc[nH]3)c2)c1	23%	176%[activator]
N#Cc1cc([N+](=O)[O-])ccc1NC(=O)COC(=O)C1(c2ccccc2F)CCCC1	6%	30%
COc1ccc(S(=O)(=O)c2cc(NS(=O)(=O)c3ccc(Cl)cc3)c(C)c(C)c2O)cc1	-15%	149%[activator]
CCOCCCN(Cc1ccco1)C(=O)c1cc2c(=O)[nH]c3ccc(C)cc3c2s1	-6%	20%
C/C(=N/Nc1ccc(S(N)(=O)=O)cc1[N+](=O)[O-])c1ccc(C)o1	0%	-12%
CCCCCCCCCCCC(=O)[O][Sn]([CH2]CCC)([CH2]CCC)[O]C(=O)CCCCCCCCCCC	-5%[11.5 µM]	-6%
Cn1c(C(=O)NCCNS(=O)(=O)c2cccs2)cc2ccccc21	0%	0%
Cc1cc(S(=O)(=O)Nc2ccc(C(=O)N3c4ccccc4CC3C)cc2)ccc1F (centres undefined)	?	-29%
CCCNC(=O)CSc1c2c(nc3ccc(Cl)cc13)CCCC2	23%	16%
CC(C)n1nc(C(=O)NCC(C)(C)N2CCCCC2)c2ccccc2c1=O	-2%	-7%
COc1ccc(C2NC(=O)N(C)C3=C2C(=O)N(c2cccc(Cl)c2)C3)cc1 (centres undefined)	-6%	-10%
COc1ccc2[nH]cc(C3CC(=O)Oc4c3c(=O)n(C)c3ccccc43)c2c1 (centres undefined)	0%	-9%
CCOC(=O)N1CCc2c(sc3c2c(=O)n(Cc2ccccc2)c(=O)n3CC(=O)Nc2cccc(C)c2)C1	-14%	-30%
CCCCOC(=O)c1ccc(NC(=O)CSc2nc3c(c(=O)[nH]2)CCCC3)cc1	-11%	14%
Cc1cccc(NC(=O)CSc2nc3ccccc3c3nc(CCn4cncc4C)nn23)c1	?	?
CCOC(=O)c1ccccc1NC(=O)/C(C#N)=C\c1cc(OC)ccc1O	19%	3%
COc1cccc(-c2nnc(SCC(=O)N(C)C3CCCCC3)o2)c1	-14%	-13%
O=C(Nn1cnnc1)c1cc(Cl)cc(Cl)c1	-14%	-9%
Cc1ccc(Nc2nnc(-c3ccc(C)c(S(=O)(=O)N4CCOCC4)c3)c3ccccc23)cc1	-13%	-7%
CSc1ccccc1NC(=O)COc1ccc2c(c1)CCC(=O)N2	13%	-10%[1.06 µM]
C[C@@H]1O[C@@H](n2c3ccc(Cl)cc3c3ccc4c5cc(Cl)ccc5[nH]c4c32)[C@H](O)[C@H](O)[C@H]1O	4%	5%
Cc1ccc(-c2nc(NC(=O)c3cc(C)on3)sc2C)c(C)c1	28%	9%
CNc1oc(-c2cc(S(=O)(=O)N(C)c3ccccc3)c(C)o2)nc1C#N	31%	10%
